# Beta cell apopt = blocks beta cell apoptosis; INS-1E cytokine-induced death, ATP luminescence, 48 h; percent of positive-control rescue, neutral wells zero; protection from apoptosis, % (no concentration beside the values); 300,000 tested, 0.8% active;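 active means all replicates at 75% or more, or half of them and the mean; inconclusive means half reach 75% but not the mean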;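 further: 0% = cytokine-treated negative control wells and 100% = positive control rescue; higher means more ATP so stronger rescue from cytokine killing; wells of about 40 µL received 100 nL stock; the first replicate is given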
# Calb FLC = C. albicans growth modulation with fluconazole; C. albicans CaCi-2 (fluconazole-resistant clinical isolate) + fluconazole, Alamar Blue growth, 48 h; growth inhibition, % (no concentration beside the values); 300,000 tested, 0.57% active; AID 1979;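 active means most replicates above 75%; inconclusive means exactly half above 75%; inactive means most below 75%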;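 further: all wells also contain fluconazole at 8 µg/ml as a sub-toxic cotreatment; 0% = median of DMSO wells and 100% = median of geldanamycin control wells; wells of about 8 µL received 7.5 nL stock; the first replicate is given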
# T cruzi inh = T. cruzi replication inhibition; T. cruzi beta-gal in NIH3T3, luminescence, 90 h; inhibition, % (concentration not given with the values); 300,000 tested, 1.4% active;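 active means mean inhibition across valid replicates above about 55%, limit read from the data; inconclusive means mean below that limit but half or more replicates reach it; inactive means mean below it, under half of replicates reach it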;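 further: signal also drops with host cell toxicity which is not excluded here; 0% = plate median of DMSO wells and 100% = zero luminescence signal; higher percent means less beta-gal luminescence so fewer parasites; stock transfer was 50 nL into about 50 µL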
# B2AR ag = human beta-2 adrenergic receptor agonism by FAP. AID 504454. response, % (test concentration not listed). Am2.2-beta2AR cells, FAP receptor internalization, flow cytometry; reference of the scale not given here. 340,000 tested, 0.43% active. P07550;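 active means response above a set limit, near 3 SD of response in nonfluorescent compounds, cut at about 42% in these data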;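 further: stock transfer was 100 nL into about 11 µL; a reference agonist was the positive control; negative values mostly stem from fluorescent compounds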
# Bfl-1 A1 inh = inhibitors of the anti-apoptotic protein A1, read as caspase activation. 330,000 tested, 0.066% active. MEF A1-2A-BIM cells, Caspase-Glo 3/7 luminescence, 3 h; percent of clofoctol response, vehicle zero. caspase activation, % (no concentration beside the values). AID 2462;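 active means over half of replicate activation scores above 10%, or exactly half above 10 with the replicate mean above 10; inconclusive means replicate mean below 10 yet half the replicates above 10; inactive means over half of replicates below 10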;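 further: wells of about 30 µL received 50 nL stock; many hits fall short of the cut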
# UCH37 inh = inhibitors of human deubiquitinating enzyme UCH37 | Q9Y5K5 | purified proteasome/UCH37, Ub-AMC cleavage fluorescence | inhibition, % (no concentration beside the values) | 330,000 tested, 0.33% active | AID 588478;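 active means mean of two replicates above 20%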;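 further: 0% = compound-free wells with enzyme and 100% = wells lacking proteasome; stock transfer was 100 nL into about 20 µL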
#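 Reagent: Ub-AMC substrate; assay system: Proteasome-associated human UCH37 deubiquitinase; controls: no-proteasome and no-compound wells; read-out: % inhibition of Ub-AMC cleavage fluorescence; timing: 30 min preincubation with enzyme, 25 min cleavage at room temperature; signal: AMC fluorescence from Ub-AMC cleavage, excitation 355 nm, emission 460 nm; buffer or medium: Tris-HCl pH 7.4 plus ovalbumin, ATP-MgCl2, DTT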
# RanGTP-Imp inh = inhibitors of RanGTP-importin-beta interaction, primary screen, biochemical, FRET, CFP-Ran, YFP-importin-beta, homogeneous. cell-free CFP-Ran/YFP-importin-beta FRET ratio. inhibition, % (test concentration not listed). 300,000 tested, 1.1% active. AID 2216;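 active means most replicates above 15%; inconclusive means exactly half above 15%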;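 further: 0% = DMSO wells and 100% = Ran loaded with GDP instead of GTP; wells of about 40 µL received 100 nL stock; the first replicate is given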
# LANA-H2A inh = blocks KSHV LANA binding to histone H2A/H2B. Q9QR71. cell-free LANA-H2A/H2B peptide, fluorescence polarization. inhibition, % (concentration not given with the values). 320,000 tested, 0.6% active; in the data active means inhibition mostly above about 10%, no sharp cut-off; inactive means mostly below about 6.7%;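 further: stock transfer was 7.5 nL into about 10 µL; 0% = median of vehicle wells and 100% = median of positive control wells; one replicate is shown; the record names a cut of 25% in any replicate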
# Target sequence (Q9QR71 whole entry, looked up): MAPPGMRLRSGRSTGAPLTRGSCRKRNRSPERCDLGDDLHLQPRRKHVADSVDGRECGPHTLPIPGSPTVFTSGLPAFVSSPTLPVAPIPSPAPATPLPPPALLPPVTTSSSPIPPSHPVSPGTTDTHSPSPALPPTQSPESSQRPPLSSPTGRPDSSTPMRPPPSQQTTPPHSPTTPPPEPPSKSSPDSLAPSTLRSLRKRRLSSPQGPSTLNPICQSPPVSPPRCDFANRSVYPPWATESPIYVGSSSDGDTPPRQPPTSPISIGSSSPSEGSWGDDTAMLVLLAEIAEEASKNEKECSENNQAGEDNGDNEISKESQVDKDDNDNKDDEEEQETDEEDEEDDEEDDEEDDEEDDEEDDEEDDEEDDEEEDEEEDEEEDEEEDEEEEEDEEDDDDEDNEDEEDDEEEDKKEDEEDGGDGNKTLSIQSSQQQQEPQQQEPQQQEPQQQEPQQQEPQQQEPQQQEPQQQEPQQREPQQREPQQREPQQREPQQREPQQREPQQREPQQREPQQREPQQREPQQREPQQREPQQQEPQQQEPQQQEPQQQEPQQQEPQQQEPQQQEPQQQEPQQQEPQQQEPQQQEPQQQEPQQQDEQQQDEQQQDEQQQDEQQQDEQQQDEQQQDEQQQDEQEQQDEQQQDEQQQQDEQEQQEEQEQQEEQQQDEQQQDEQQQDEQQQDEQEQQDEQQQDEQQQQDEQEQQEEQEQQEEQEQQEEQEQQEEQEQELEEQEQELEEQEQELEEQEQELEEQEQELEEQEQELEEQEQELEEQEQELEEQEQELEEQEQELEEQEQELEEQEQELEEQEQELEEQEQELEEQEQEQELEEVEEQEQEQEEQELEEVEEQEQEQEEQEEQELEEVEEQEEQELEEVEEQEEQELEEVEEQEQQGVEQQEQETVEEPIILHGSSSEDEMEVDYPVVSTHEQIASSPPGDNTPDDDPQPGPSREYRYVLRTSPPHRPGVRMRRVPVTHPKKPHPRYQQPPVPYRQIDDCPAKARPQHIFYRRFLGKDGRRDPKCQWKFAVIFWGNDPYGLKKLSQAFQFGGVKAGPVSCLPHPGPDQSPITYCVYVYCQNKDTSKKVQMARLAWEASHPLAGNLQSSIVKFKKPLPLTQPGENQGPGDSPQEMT
# Active calls of the source: *; ? = inconclusive; . = not tested or not shown.
mol,Beta cell apopt,Calb FLC,T cruzi inh,B2AR ag,Bfl-1 A1 inh,UCH37 inh,RanGTP-Imp inh,LANA-H2A inh
COc1cccc(C2=CC(=O)C[C@H](c3ccc4c(c3)OCO4)C2)c1,-1,.,.,-3,-0.3,0.1,.,1.1
CN(Cc1ccc(OC(F)F)cc1)C(=O)/C=C/c1ccc(S(=O)(=O)N2CCOCC2)cc1,7,.,.,-9,0.0,3.1,.,0.3
O=C(Nc1sc2c(c1C(=O)NCC(O)CO)CCCC2)c1ccccc1 (stereo not given),-3,2,-9,4,-0.7,1.6,0.1,1.5
Cc1ccc(S(=O)(=O)N2CCOCC2)cc1C(=O)N1c2ccccc2Sc2ccccc21,.,-17,-10,6,0.1,4.9,0.2,-2.2
CC(/C=C/c1ccccc1F)=N\NC(=O)c1ccccc1,7,-6,14,3,0.7,.,-1.7,-5.0
O=C(CSc1cccc[n+]1[O-])Nc1ccc2c(c1)OCO2,2,-7,-20,15,-0.7,4.8,0.9,1.9
O=C(Nc1ncccn1)c1cccs1,4,-6,-4,-3,-2.6,-2.5,?,2.5
CCOC(=O)[C@@H]1[C@H]2COc3ccc(Br)cc3[C@@H]2N2C(=O)N(c3ccc(OC)cc3)C(=O)[C@]12C,-7,7,-3,0,1.0,1.0,1.9,-3.6
O=C(CSc1nc(-c2ccco2)cc(C(F)(F)F)n1)Nc1ccccc1C(F)(F)F,8,-3,-14,2,0.7,0.8,8.1,0.6
CC1(C)CC(CC(=O)Nc2ccccn2)C(=O)O1 (stereo not given),-9,24,-10,3,-0.6,4.3,-1.1,-1.7
CSc1nc2c(c(=O)[nH]c(=O)n2C)n1Cc1ccc(Cl)cc1,6,5,16,6,-0.1,0.7,6.6,15
O=C(CSc1ccc2nnc(-c3cccnc3)n2n1)c1ccccc1,-2,9,1,3,0.9,2.5,-1.0,0.9
O=C(OCC(=O)N1CCN(c2ccccc2)CC1)c1cccs1,-5,2,-3,-4,-0.3,0.7,6.8,-1.9
Cc1ccc(S(=O)(=O)NC2CC2)s1,-1,6,-1,-1,-0.5,0.8,4.4,-56
CCOC(=O)c1ccc(NC(=O)c2cccc(S(=O)(=O)N3CCOCC3)c2)cc1,-9,0,1,18,1.0,-1.7,6.5,3.8
CCCCOc1ccc(C(=O)Nc2ccc(S(=O)(=O)Nc3onc(C)c3C)cc2)cc1,.,-2,-17,-7,0.3,.,-1.0,-7.2
Cc1ccc(-c2noc(-c3ccccc3C(=O)N3CCN(C)CC3)n2)cc1,-4,-8,-3,0,0.4,-0.4,4.5,-1.8
O=c1c2ccccc2ncn1CCCOc1ccccc1[N+](=O)[O-],-2,1,-2,4,-1.4,5.9,6.6,-2.5
CCc1ccc2c(CN3CCOCC3)cc(=O)oc2c1,0,8,-9,6,0.5,6.0,3.0,-3.9
C=CCOc1ccc(/C=N\NC(N)=S)cc1,-1,-4,64*,1,-0.5,.,1.1,4.0
CC1(NC(=S)Nc2ccc3ccccc3c2)CCS(=O)(=O)C1 (stereo not given),-9,28,-6,-4,0.5,1.3,?,-3.7
CCNc1nc(OCCNS(=O)(=O)c2cc(C)ccc2C)nc(N(C)C)n1,-2,2,-12,-6,0.2,-0.5,0.3,0.8
CCOC(=O)N1CCN(C(=S)NC(C)(C)C)CC1,-4,-16,-1,-6,-0.4,4.1,-2.5,2.1
O=C(CN1C(=O)COc2ccccc21)Nc1ccccc1F,-3,-3,-10,-2,2.1,3.4,-1.5,-4.6
COc1ccc(NC(=O)Cc2nnc(SCC(=O)NC3CCCCC3)n2C)cc1,-4,3,4,-8,-0.2,5.1,2.9,-1.4
Cc1cc(NC(=O)CSc2nc3ccccc3c(=O)n2Cc2ccccc2)no1,0,1,-5,-9,0.3,1.1,-0.9,0.7
Cc1csc(/C(=N/OC(=O)c2ccco2)C(N)=O)n1,-8,0,5,2,1.1,.,-0.2,-8.9
O=C(NCCCN1CCOCC1)c1cc(-c2cccc(Br)c2)nc2ccccc12,14,0,-7,-2,-1.0,1.9,5.1,-1.0
c1ccc(Cn2c(-c3ccccc3)nc3nc4ccccc4nc32)cc1,11,-10,28,-15,-1.1,-71,-2.3,-5.6
COc1ccc(-c2ccnc(SCC(=O)c3ccc(Cl)cc3)n2)cc1,-8,-8,27,-26,-0.4,2.3,-1.1,0.3
O=C(N/N=C/c1ccc(OC2CSC2)cc1)c1ccccc1,6,34,-5,-4,-7.0,.,-4.7,-4.3
Clc1nc(Oc2ccccc2)nc(-c2cn(-c3ccccc3)c3ccccc23)n1,-1,1,-9,-4,0.2,-118,-0.6,1.4
O=C(CCC1CCCC1)N[C@@H](Cc1ccc(O)cc1)C(=O)O,0,-1,-9,-2,-1.3,4.4,5.3,4.2
CCN1CCN(C(c2cccs2)C(C)NS(=O)(=O)c2ccccc2)CC1 (stereo not given),-3,9,-6,4,-0.4,1.3,1.8,1.7
Cc1cccc(-c2nc(CNC(=O)c3ccco3)cs2)c1,-1,-10,5,3,-1.6,0.3,3.5,3.9
COc1ccc(C(=O)N[C@H](C(=O)NCc2cccs2)C(C)C)cc1,4,-5,2,-6,0.2,0.1,2.4,2.4
Cc1nn(C)cc1CNC(=O)COc1ccc(Cl)cc1Cl,.,40,-7,-8,-0.3,1.8,-8.2,0.6
CCC(=O)c1ccc(OCC(=O)N2CCc3cc(OC)c(OC)cc3C2)cc1,-5,.,.,-5,-1.9,6.1,.,-2.4
Cc1csc(NC(=O)C2CCC(C)(C(=O)O)C2(C)C)n1 (stereo not given),-5,-11,-18,9,0.1,0.8,6.5,-0.4
COCC(C)n1c(SCC(=O)Nc2oc(C)c3c(C)n[nH]c(=O)c23)nc2ccccc2c1=O (stereo not given),-2,-5,-2,9,1.2,0.6,3.8,1.3
CCOC(=O)c1sc(NS(=O)(=O)c2cc(C)ccc2C)nc1C,2,?,18,3,-1.1,0.7,3.3,-0.4
CCCCc1cc(=O)oc2cc(OCC(=O)NC(Cc3c[nH]c4ccc(O)cc34)C(=O)O)ccc12 (stereo not given),.,-2,-17,4,0.3,1.9,-1.7,3.2
CC(C)CC(c1nnnn1C1CCCC1)N1CCN(c2ccccc2F)CC1 (stereo not given),7,2,-9,-5,-0.7,0.0,2.6,2.6
O=C(Nc1ccc2nn(-c3ccccc3)nc2c1)c1cccnc1,1,-29,.,1,-0.7,4.1,.,2.3
CC(=NCc1ccc2c(c1)OCO2)C1=C(O)c2ccccc2C1=O,3,-36,-12,-2,-0.1,-4.8,0.9,8.6
Cc1ccnc(SCCn2c(Br)nc3c2c(=O)[nH]c(=O)n3C)n1,0,-3,-3,-6,-1.0,0.7,-2.3,-0.5
CCN(CC)CCCNC(=O)c1sc2nc(-c3ccc(F)cc3)cn2c1C,0,14,46,-3,-0.6,3.2,-0.1,-9.6
CCOC(=O)CNC(=O)CSc1nnc(CCc2nc3ccccc3[nH]2)n1C,-1,3,-2,1,0.2,0.0,2.5,0.6
CCc1ccccc1NC(=S)NC1CC2CCC(C1)N2Cc1ccco1 (stereo not given),0,-13,-18,0,-0.5,-0.9,-1.5,1.1
O=C(NC(CO)(CO)CO)[C@@H]1CCCN1S(=O)(=O)c1cccc2cccnc12,-9,.,.,-1,-0.3,0.8,.,0.7
COc1ccc(N2CC(O)(c3ccc(OC(F)F)cc3)[N+]3=C2CCCC3)cc1 (stereo not given),-2,-6,19,4,0.9,2.5,2.5,0.7
Cc1cc(N2C(=O)C(O)=C(C(=O)c3cccs3)C2c2cccc(Br)c2)no1 (stereo not given),-3,32,-7,-1,-1.2,8.7,2.2,-0.7
COc1ccc(OCC(=O)OCC(=O)NC2CCCCC2C)cc1 (stereo not given),-7,.,.,0,-0.8,4.9,.,0.6
COC(=O)C1CN(C(=O)COc2ccc(C)c(C)c2)c2ccccc2O1 (stereo not given),1,-5,-7,6,0.6,2.7,0.1,-3.9
CCOC(=O)N1CCN(c2c(NCC3CCN(Cc4cccc(C)c4)CC3)c(=O)c2=O)CC1,5,-2,-1,-14,0.1,3.3,-0.6,1.6
CCCCN1CC(=O)N2[C@H](c3ccc(Cl)cc3)[C@@H]3C(=O)N(CC)C(=O)[C@@H]3[C@]2(C)C1=O,-2,-3,-20,2,-0.3,4.4,1.0,2.8

# Additional records follow.
mol,Beta cell apopt,Calb FLC,T cruzi inh,B2AR ag,Bfl-1 A1 inh,UCH37 inh,RanGTP-Imp inh,LANA-H2A inh
CC(C)OCCCN(C)C1CCN(S(=O)(=O)c2csc(C(N)=O)c2)CC1,-5,-3,30,2,1.2,4.3,0.4,3.6
Cc1cc(N2CCOCC2)ncc1[N+](=O)[O-],-4,54,3,1,0.5,12,-1.0,4.3
O=c1c2c3c(sc2nc(N2CCNCC2)n1-c1cccc(Cl)c1)CCCCC3,5,2,0,.,-0.1,.,1.4,-0.2
Cn1c(SCC(=O)Nc2sccc2C(N)=O)nc2ccccc2c1=O,-3,.,.,-3,-1.1,3.8,.,-1.7
CC1CN(c2nc3ccccc3nc2C(C#N)C(=O)NC2CCCCC2)CC(C)O1 (stereo not given),3,-3,25,.,1.6,-1.9,-0.7,-4.8
Cc1ccc(O)c(C2=Nc3ccccc3C2(C)C)c1,0,1,-5,12,-1.7,3.9,6.6,4.8
CCc1ccc2[nH]c(=O)c(C3C(C#N)=C(N)Oc4c3ccc3cccnc43)cc2c1 (stereo not given),94*,110*,59*,-10,-0.3,-33,0.7,4.5
Cc1ccsc1/C=N/NC(=O)Cc1cc(=O)[nH][nH]1,-4,5,1,6,0.0,.,3.8,-2.1
CCCNc1c(NS(=O)(=O)c2ccc(Cl)s2)c(=O)oc2ccccc12,-6,7,12,1,-2.1,2.5,3.8,0.8
CCS(=O)CC(=O)Nc1c(-c2ccccc2)oc2ccccc2c1=O (stereo not given),-5,36,-6,-11,0.2,3.8,4.4,-6.5
CCOC(=O)C(NC(=O)CC)(Nc1sc2c(c1C(=O)OC)CCN(C)C2)C(F)(F)F (stereo not given),-7,-8,17,-4,0.6,-3.7,38*,4.1
COc1ccc(/C=N/NC(=O)c2ccccc2O)cc1Cn1cc(Cl)cn1,-2,0,-20,2,-0.2,.,?,-1.0
CCc1ccc(Nc2nc(N3CCOCC3)nc(N3CCOCC3)n2)cc1,-6,-34,16,11,-0.8,2.8,2.2,4.4
CCOc1ccc(C(O)Cn2c(=N)n(CCN3CCCCC3)c3ccccc32)cc1 (stereo not given),4,-33,24,7,1.9,2.1,5.0,8.3

# Screens as filed in PubChem.

# Random draw from the library; 4.3% or so of the library scored in one or more.
